# Menin MLL FP FL = qHTS Assay for Inhibitors Targeting the Menin-MLL Interaction in MLL Related Leukemias: Competition With Fluorescein Labeled MLL-derived Peptide; 290,000 tested, under 10 active; Fluorescence polarization, fluorescein-MLL peptide displacement from menin; FP activity change, % at 61.4 µM; inconclusive = falling polarisation curve, or a change in total fluorescence; inactive = total fluorescence flat and polarisation flat or rising; no compound was filed as active; the % refers to the polarisation; negative = inhibition;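 note: % of control where 0% means no effect; inhibitors lower the polarisation; unlabelled MLL peptide was the positive control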
# Sfp inh = qHTS Assay for Inhibitors of Bacillus subtilis Sfp phosphopantetheinyl transferase (PPTase) | 4'-phosphopantetheinyl transferase ffp (Bacillus subtilis), Q9F4F7 | hit rate 3.5% among 310,000 | Biochemical Sfp PPTase activity, qHTS | Potency, µM, inactives show max response, negative = inhibition, usual class: inhibitors; active = well fitted inhibition curve with a large enough effect; inconclusive = small, poorly fitted or top-dose-only effect, or another doubt; inactive = no such curve, though single readings can be large or run the other way;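 note: the enzyme is Sfp with the accession as filed and its product quenches rhodamine fluorescence; potency is the fitted concentration of half-maximal effect; 0% = enzyme reaction without inhibitor and -100% = no enzyme wells; top concentration of the series not given in the record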
#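 Fluorescence-quenching assay: 15 nM Sfp-PPTase preincubated 15 min at room temperature with compound, then 5 uM rhodamine-CoA and 12.5 uM BHQ-2-labelled YbbR peptide added. Fluorescence (ex 525/em 598 nm) read at start and after 30 min; difference gives rate.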
# TRPML1 ag = qHTS for Agonists of the Human Mucolipin Transient Receptor Potential 1 (TRPML1). activation, % (no concentration beside the values). TRPML1-expressing cells, Ca2+ dye fluorescence, FDSS; host cell line not named in the record; reference of the full effect not given here. hit rate 0.12% among 410,000. Mucolipin-1 (Homo sapiens), Q9GZU1; in the data active = activation above about 50%; inconclusive = about 30% to 50%; inactive = below about 30%; note: 0% is about no effect; the text of the record puts the active cut at 80%
# Target sequence (Q9GZU1 whole entry, looked up): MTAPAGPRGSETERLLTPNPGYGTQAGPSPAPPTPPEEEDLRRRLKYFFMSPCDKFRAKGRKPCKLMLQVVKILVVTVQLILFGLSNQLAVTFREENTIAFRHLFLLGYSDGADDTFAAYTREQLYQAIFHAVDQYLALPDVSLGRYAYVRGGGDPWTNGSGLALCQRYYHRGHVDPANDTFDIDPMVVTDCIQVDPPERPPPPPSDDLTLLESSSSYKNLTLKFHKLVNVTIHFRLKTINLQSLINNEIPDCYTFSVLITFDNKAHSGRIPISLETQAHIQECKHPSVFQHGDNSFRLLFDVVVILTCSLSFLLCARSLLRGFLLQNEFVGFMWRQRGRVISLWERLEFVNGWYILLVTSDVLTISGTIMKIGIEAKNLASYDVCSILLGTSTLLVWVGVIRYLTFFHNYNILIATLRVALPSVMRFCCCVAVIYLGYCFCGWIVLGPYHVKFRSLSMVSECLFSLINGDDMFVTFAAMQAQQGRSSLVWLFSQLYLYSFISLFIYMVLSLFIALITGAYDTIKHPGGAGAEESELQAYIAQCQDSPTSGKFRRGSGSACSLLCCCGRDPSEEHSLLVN
#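 Kinetic FDSS Ca2+ read in Tet-induced TRPML1-DL cells (ABD Ca8 dye plus quencher, 45-90 min RT loading): baseline, then compound, then 110 s agonist window; EC80 agonist 54-4 at 4uM final added afterwards for a 110 s antagonist window.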
# TRPML1 inh = qHTS for Inhibitors of the Human Mucolipin Transient Receptor Potential 1 (TRPML1); TRPML1-inducible cells, Ca2+ dye fluorescence, FDSS; hits give low values; inhibition of EC80 agonist-evoked calcium signal; activity change, negative = inhibition, % (test concentration not listed); hit rate 0.02% among 390,000; AID 624415, 2012; in the data active means activity change below about -50%; inconclusive means about -30% to -50%; inactive means above about -30%;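 note: stimulus is agonist 54-4 at its EC80 concentration; % is set by controls: 0 for no effect and ±100 for the full control effect; compound concentration not given in the record; the text of the record puts the active cut at -80%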
#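 TRPML1-DL cells, Tet-induced overnight (~16 h, 37 °C) at 1,500 cells/well, were loaded with Ca8 no-wash dye plus quencher for 45-90 min at room temperature. Compounds were pinned during FDSS kinetic reading; agonist 54-4 at EC80 (4 uM final) then added.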
# TRPV1 potentiator = HTS Assay for Compounds that Act as Potentiators of the Vanilloid Receptor 1. Transient receptor potential cation channel subfamily V member 1 (Homo sapiens), Q8NER1. TRPV1-expressing cells, Fluo-8 calcium influx, capsaicin EC20 potentiation; host cell line not named in the record; control for the full effect not named in the record. potentiation, % at 8.33 µM. hit rate 0.02% among 320,000. AID 540277, 2011; active means potentiation above 80%; inconclusive means 30% to 80%; inactive means below 30%; note: 0% is about no effect
#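 Cells expressing TRPV1 were dye-loaded with Fluo-8 and read kinetically: 10 s baseline, 3 min after compound (agonist portion), then 2 min after EC20 capsaicin (allosteric enhancer portion). Calcium-bound dye fluorescence at 480/520 nm.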
# PINK1 expr mod = A Quantitative High throughput Screen to Identify Chemical Modulators of PINK1 Expression. PINK1 immunofluorescence, high-content cytometry, 24 h. Potency, µM (top dose mostly 76.6 µM), for inactives: top-dose activation (PINK1 increase), actives largely listed as activators. hit rate 0.2% among 410,000. AID 624263, 2012; active = well fitted activation curve with a large enough effect; inconclusive = small, poorly fitted or top-dose-only effect; inactive = flat fitted curve, though single readings scatter; cell line not stated here;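 note: potency is the fitted concentration of half-maximal effect; % of control where 0% means no effect; nearly all actives have a fitted effect of over 65% in size; a mitochondrial uncoupler was the plate control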
#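 A stable cell line was treated with compounds at 5 concentrations for 24 hours, with CCCP as control. PINK1 levels and mitochondrial localization were measured by immunofluorescence with mitochondrial, cell and nuclear markers after fixation, read by laser-scanning cytometry.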
# ClpP mod = qHTS Assay for Activators of ClpP; ATP-dependent Clp protease proteolytic subunit (Bacillus subtilis (strain 168)), P80244; purified B. subtilis ClpP, FRET peptide cleavage, 20 min; Potency, µM (titrated, usually from 57.5 µM), for the others: at the highest dose activity change, negative = active; hit rate 1.9% among 340,000; AID 651965, 2013; active = well fitted falling curve with a large enough effect; inconclusive = small, poorly fitted or top-dose-only effect; inactive = no such curve, though single readings can be large or run the other way; note: potency is the fitted concentration of half-maximal effect; the source files actives as falling curves though it sought activators and does not explain the sign; nearly all actives have a fitted effect of over 65% in size; many hits overshoot -100%
# Target sequence (P80244 whole entry, looked up): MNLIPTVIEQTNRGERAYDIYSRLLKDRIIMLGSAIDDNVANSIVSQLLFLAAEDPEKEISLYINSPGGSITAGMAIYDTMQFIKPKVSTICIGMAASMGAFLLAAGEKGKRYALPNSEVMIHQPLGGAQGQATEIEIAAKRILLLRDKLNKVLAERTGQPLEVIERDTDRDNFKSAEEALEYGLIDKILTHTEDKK
#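 ClpP 10 microg/mL final, pH 8 Tris/KCl buffer with BSA, glycerol, Tween-20; compound pinned in; FRET-FV substrate; RT 20 min; Ex320/Em430; ΔFRET vs ADEP 5.8 microM, DMSO, no enzyme.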
# Numbers without * were called inactive; ? = inconclusive; / = no result given; & = joins results of further samples; ! = repeats disagree; [ ] = remark or other dose.
SMILES,Menin MLL FP FL,Sfp inh,TRPML1 ag,TRPML1 inh,TRPV1 potentiator,PINK1 expr mod,ClpP mod
O=C(NCCCn1ccnc1)/C(=C\c1ccc(Br)cc1)NC(=O)c1ccccc1F,/,12%,0.3,12,-3,1.4%,-2.4%
CC(=O)Nc1cccc(NC(=O)CSc2nnc(NC(=O)C3CC3)s2)c1,-1.0,2%,0.4,6,14,-0.4%,-2.2%
C/C=C/C(=O)OCC(=O)Nc1c(Cl)cccc1Cl,2.2,18%,-0.1,-9,6,/,-3.5%
CCOc1ccc(C2NC(=O)c3ccccc3O2)cc1 (stereo not drawn),2.2,3%,-1.6,16,-11,4.7%,?
Cc1ccccc1NC(=O)COC(=O)Cc1ccsc1,4.2,21%,1.7,-1,-4,0.0%,0.2%
Cc1cc(C)c(C)c(S(=O)(=O)N2CCC(C(=O)N3CCCCCCC3)CC2)c1C,2.0,-3%,0.0,2,7,5.0%,1.8%
CC1CCCCC12NC(=O)N(CC(=O)OCc1ccccc1Cl)C2=O (stereo not drawn),/,/,-0.1,10,-7,-0.8%,-3.6%
NC(=O)C1CCN(C(=O)c2ccc3c(=O)n(Cc4ccco4)c(SCc4ccc([N+](=O)[O-])cc4)nc3c2)CC1,/,-7%,0.5,-9,14,5.1%,-4.3%
Cc1ccccc1CS(=O)(=O)c1cn(CC(=O)N2CCC(C)CC2)c2ccccc12,4.6,-2%,2.0,-8,-24,3.4%,1.0%
CC(=O)c1ccc(NC(=O)C2CCN(S(=O)(=O)c3cccnc3)CC2)cc1,/,2%,0.0,-4,-2,0.2%,-0.6%
CC1CCCCN1C(=O)Nc1cccc(Cl)c1 (stereo not drawn),1.4,6%,-0.7,-9,-6,-3.3%,-1.2%
COc1ccc(CC2(CO)CCN(Cc3nc(C(C)C)cs3)CC2)cc1,-0.2,6%,-0.4,-8,-1,0.8%,/
CN(C)C(CNC(=O)c1cc(S(=O)(=O)N(C)c2ccccc2)ccc1Cl)c1ccccc1 (stereo not drawn),5.1,7%,1.6,-10,-8,-0.1%,/
O=C(O)c1ccc(-c2sc(Nc3ccccc3)n[n+]2-c2ccccc2)cc1,-7.5,50µM*,-0.9,5,8,1.1%,-4.7%
C/C(=N\OC(=O)c1ccc(C)cc1)c1c(C)nc2cc(C)ccn12,-13,6%,0.0,-7,-1,1.6%,-2.4%
COc1cccc(NC(=O)Cn2c(=O)n(Cc3ccccc3)c(=O)c3c2c2cc(C)ccc2n3C)c1,/,/,0.0,32,/,0.1%,4.3%
C/C(=N\Nc1cc(C)nc(NCc2ccccc2)n1)c1cccc([N+](=O)[O-])c1,1.9,?,1.1,22,4,4.6%,0.3%
O=C1NC[C@@H](CCCCN2C[C@H](Cc3ccc(O)cc3)N(Cc3ccccc3)C(=O)C2=O)N(CC2CCCCC2)C1=O,/,/,-0.6,/,/,0.1%,1.0%
O=C1CCc2cc(S(=O)(=O)N3CCC(C(=O)NC4CCCc5ccccc54)CC3)ccc2N1 (stereo not drawn),1.4,21%,-0.5,9,-9,1.1%,2.9%
CC1(C)CCC2=C(O1)c1ccccc1C(=O)C2=O,-0.1&-2.2,63µM*!,-1.0,/,/,0.0%,7.6%
CCc1ccccc1NC(=O)N1CCCC(CCC(=O)N(C)CCc2ccccn2)C1 (stereo not drawn),-4.9,10%,0.3,-3,-6,-0.3%,-0.4%
O=C(O)CCNC(=O)CCCn1nnc2ccccc2c1=O,3.1,2%,/,/,0,1.5%,-1.0%
Cc1c(C(=O)OCc2ccccc2)[nH]c2c1C(=O)CC(c1ccc(C(C)(C)C)cc1)C2 (stereo not drawn),/,/,0.8,-19,/,0.3%,-4.4%
CN(C)c1nc(C(=O)Nc2ccccc2)nc(N(C)C)n1,3.3,12%,3.4,-21,-23,-0.5%,-2.0%
O=C(Nc1ccncc1)c1ccc(NS(=O)(=O)c2cccc(F)c2)cc1,4.7,6%,-1.6,-7,-11,3.5%,32µM*
CCOC(=O)c1cc2nc(OCC)nc(OCC)c2[nH]1,/,/,-0.2,4,/,1.4%,/
CC(=O)c1ccc(N2CCN(C(=O)c3c(-c4ccccc4Cl)noc3C)CC2)cc1,/,22%,0.2,30,-1,8.2%,-2.3%
O=C(Nc1cc2c(cc1Cl)OCCCO2)c1ccc(F)cc1,-3.1,-13%,1.1,39,-20,0.9%,-11%
CC(C)CCNC(=O)C1CCN(Cc2cccc(OCc3ccccc3)c2)CC1,-10,-29%,-0.3,-17,27,0.3%,/
CCNC(=O)C1CCCN(C(=O)c2ccc(OC)cc2OC)CC1 (stereo not drawn),/,/,-0.4,/,/,1.0%,1.8%
Cc1csc2c(N3CCN(C(=O)Nc4ccc(Cl)c(Cl)c4)CC3)ncnc12,3.9,2%,1.9,-10,-2,9.3%,/
C/C(Cn1cnc([N+](=O)[O-])n1)=N\NC(=O)c1ccccc1F,/,/,0.0,17,/,0.0%,-3.6%
Cc1cc(NC(=O)Cn2nnc3sc4c(c3c2=O)CCC(C(C)(C)C)C4)no1 (stereo not drawn),10,-6%,1.1,55,3,2.9%[38.3 µM],-4.5%
COc1cc(OC)cc(-c2c(C#Cc3ccsc3)c3cc(-c4ccc(OC)c(OC)c4)ccc3n2C)c1,/,/,-0.3,8,/,1.5%,4.0%
Cc1ccc(-n2c(SCC(N)=O)nnc2-c2ccccn2)cc1,5.3,-2%,1.1,6,2,-1.0%,-0.4%
CCCCCCC(C)n1cc(C(C)=O)c(=O)[nH]c1=O (stereo not drawn),-2.7,24%,-0.6,-4,-1,-1.3%,1.9%
CC(C)(C)CC(=O)O/N=C(\N)c1ccccn1,-0.1,13%,-0.6,9,14,4.9%,1.3%
CC1CC(C)(C)CC(=O)C1C(=O)c1ccccc1 (stereo not drawn),/,/,0.4,0,-19,0.6%,2.2%
O=C(Cc1ccccc1)N/N=C/c1ccc(Cl)cc1Cl,-2.8,1%,-0.3,-2,-19,1.2%[38.3 µM],1.0%
O=C(N/N=C(\c1ccccc1)c1ccccn1)c1ccccc1Cl,-2.1,-11%,0.4,7,-7,0.2%,8.9µM*

# As entered above.
# Under PINK1 expr mod, O=C(Nc1cc2c(cc1Cl)OCCCO2)c1ccc(F)cc1 is entered as 0.9%
# Under TRPML1 ag, CCc1ccccc1NC(=O)N1CCCC(CCC(=O)N(C)CCc2ccccn2)C1 (stereo not drawn) is entered as 0.3
# Under PINK1 expr mod, Cc1ccc(-n2c(SCC(N)=O)nnc2-c2ccccn2)cc1 is entered as -1.0%
# Under TRPML1 ag, Cc1csc2c(N3CCN(C(=O)Nc4ccc(Cl)c(Cl)c4)CC3)ncnc12 is entered as 1.9

# Complete entries from above. Order of values: Menin MLL FP FL	Sfp inh	TRPML1 ag	TRPML1 inh	TRPV1 potentiator	PINK1 expr mod	ClpP mod
# Profile of O=C(Nc1ccncc1)c1ccc(NS(=O)(=O)c2cccc(F)c2)cc1 : 4.7	6%	-1.6	-7	-11	3.5%	32µM*
# Profile of Cc1cc(NC(=O)Cn2nnc3sc4c(c3c2=O)CCC(C(C)(C)C)C4)no1 (stereo not drawn) : 10	-6%	1.1	55	3	2.9%[38.3 µM]	-4.5%
# Profile of CCc1ccccc1NC(=O)N1CCCC(CCC(=O)N(C)CCc2ccccn2)C1 (stereo not drawn) : -4.9	10%	0.3	-3	-6	-0.3%	-0.4%

# Continued:
SMILES,Menin MLL FP FL,Sfp inh,TRPML1 ag,TRPML1 inh,TRPV1 potentiator,PINK1 expr mod,ClpP mod
COc1cc(C2CC(=O)Oc3c2c(=O)n(C)c2ccccc32)ccc1O (stereo not drawn),-0.7,4%,0.0&-0.1,10&0,14,-0.5%&1.2%,1.5%
Cc1c(NC(=O)C(C)Sc2ncnc3ccccc23)c(=O)n(-c2ccccc2)n1C (stereo not drawn),-1.1,1%,-0.3,-14,-2,2.0%,/
COc1ccc(Nc2cccc(Cl)c2)c(C(=O)O)c1,-1.5,7%,0.3,6,12,-0.3%,0.4%
CCOc1cc(/C=N/n2c(COc3ccccc3)n[nH]c2=S)ccc1O,-7.0,-12%,0.6,-1,?,-0.5%,-1.2%
CCCCCCN1N=C(C)C(C(=O)c2ccc(Cl)cc2)C1=O (stereo not drawn),2.0,20%,8.5,-5,?,0.6%,1.6%
O=C(NC1(C(F)(F)F)NC(=O)N(Cc2cccnc2)C1=O)c1ccccc1 (stereo not drawn),3.6,9%,0.0,7,-2,0.5%,-0.1%
O=C1N/C(=N/O)S/C1=C/c1cccc([N+](=O)[O-])c1,-8.4,4%,-0.5,-3,30,0.9%,/
O=P1(c2ccccc2)C=Cn2c1cc1c2CCCC1 (stereo not drawn),0.2,7%,0.6,3,-9,-1.1%[38.3 µM],0.5%
CCCc1ccc(OCCNC(=O)c2ccco2)cc1,/,7%,0.4,-2,-4,0.9%,0.4%
OC1(c2ccccc2)Cc2cccc[n+]2C1c1ccccc1 (stereo not drawn),3.0,16%,-0.2,6,-3,-0.8%,-1.8%
Cc1ccc(S(=O)(=O)N2CCOCC2)cc1NC(=O)C1CC(=O)N(c2ccc3c(c2)OCCO3)C1 (stereo not drawn),/,/,-0.7,0,5,0.2%,-1.9%
CCCC(=O)Nn1cnc2c(c1=O)C1(CCCC1)Cc1ccccc1-2,3.1,-3%,1.2,7,-23,-1.5%,-0.6%
COC(=O)c1ccc(CNC(=O)N2CCN(S(=O)(=O)c3ccc(C)cc3)CC2)cc1,3.0,9%,0.0,-17,15,1.1%,/
O=C(Nc1cccc(S(=O)(=O)c2cccc(NC(=O)c3ccco3)c2)c1)c1ccco1,2.1,11%,-0.4,-1,17,4.9%,/
Cc1ccc(S(=O)(=O)Nc2ccc(C(=O)NCc3ccncc3)cc2)cc1,/,9%,-0.2,29,-3,1.3%,1.2%
CC(=O)O[C@@H](Cc1ccc(O)cc1)C(=O)CC(C)C,/,/,-0.4,/,/,0.0%,-2.0%
CCCOC(=O)CSc1nc(N)c(C#N)c(-c2ccco2)c1C#N,/,/,0.4,-11,/,0.4%,25µM*
